SmPrx2 inh: inhibitors of Schistosoma mansoni peroxiredoxin 2. Potency, µM. 0.07% of 65,000 active. AID 448. S. mansoni Prx2 activity coupled to TGR/GSH (TGR is thioredoxin glutathione reductase), NADPH fluorescence loss, qHTS; some inactives read as strong as hits; active means full or partial inhibition curve with a strong effect at the top dose; inconclusive means weaker partial or single-point curve; inactive means no accepted curve; also: series up to 57 µM; many of its hits are not listed in these tables
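Activity is read as the drop in NADPH fluorescence (365/450 nm), recorded every 30 sec for 8 min after H2O2 addition. Prx2 is coupled to TGR-driven NADPH oxidation through glutathione, in phosphate buffer pH 7.4.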
LT uptake inh: inhibitors of anthrax lethal toxin internalization; Cells, anthrax lethal toxin internalization, FRET ratio (460/530); Potency, µM (highest dose often 40 µM), without a hit: top-dose activity change, negative = inhibition, hits mostly inhibitors; 0.67% of 70,000 active; active = well fitted falling ratio curve with the 530 nm signal flat; inconclusive = other ratio curves, or a change in one channel alone; inactive = flat curves in the ratio and both channels; the % refers to the ratio; also: % is scaled to controls: 0 for no effect and ±100 for the full control effect; nearly all actives have a fitted effect of over 50% in size; tested in ME-180 cells; beta-lactamase reporter
* hit, by the source's call; ? = inconclusive; . = not tested or not shown; & = joins results of further samples; [ ] = remark or other dose. Potency is read from the fitted curve at half-maximal effect. These rows are one share of the data; count on the stated rates, not on these rows.

Results follow in this order: SmPrx2 inh, LT uptake inh
> Cc1noc(NC(=O)Nc2ccccc2F)c1C#N
→ >57, 1%[8 µM]
> CCOc1ccc(NC(=O)NC2CCOC(C)(C)C2)cc1 (stereo not given)
→ >57, -2%
> COCCNC(=O)C(c1ccc(F)cc1)N(CCOC)C(=O)CCC(=O)Nc1nccs1 (stereo not given)
→ >57, 6%
> COc1ccc(CCNC(=O)c2cc(-c3ccccc3OC)on2)cc1OC
→ >57, -10%
> O=C(CSc1nc2c(c(=O)n1-c1ccc(Cl)cc1)SCC2)N1CCCC1
→ >57, -9%
> COC(=O)c1ccc(C2C(C(=O)Nc3ccc(C)cc3C)=C(C)Nc3ncnn32)cc1 (stereo not given)
→ >57, -17%
> COc1ccc2cc(C(c3nnnn3C3CCCC3)N3CCc4ccccc4C3)c(=O)[nH]c2c1 (stereo not given)
→ >57, 4%
> COc1ccc(OC)c(NC(=O)Cn2c(=O)oc3ccccc32)c1
→ >57, 8%
> COc1cccc(-c2cc(NCc3cccc(C)c3)ncn2)c1
→ >57, -9%
> COc1c(Br)cc(Br)cc1C(=O)O
→ >57, 0%
> CC(=O)N1CCC2(CC1)CN(c1ccccc1)C2
→ >57, -1%
> C=CCn1c(N)c(C(=O)N2CCOCC2)sc1=S
→ ?, -12%
> CN(CC(=O)Nc1ccc(Cl)cc1)S(=O)(=O)c1cccc2cccnc12
→ >57, 7.9µM*
> O=C(c1ccco1)N1CCn2c1nc1ccccc12
→ >57, 5%
> CCOCC(O)CS(=O)(=O)c1ccccn1 (stereo not given)
→ ., -8%
> O=C(Nc1ccc(Cl)cc1)Nc1ccccc1C(=O)NCc1ccco1
→ >57, -22%
> COC(=O)CCC(=O)OC
→ ., -14%
> CC(=O)Cc1nsc(NC(=O)c2csc3c2CCCC3)n1
→ >57, -11%
> CCC(C)=O
→ ., -3%
> Cc1cc(C)nc(NC(=O)NS(=O)(=O)N2CCCCCC2)n1
→ >57, 3%
> COC(=O)c1ccc(C(=O)OC)c(NC(=O)CCc2ccc(C)o2)c1
→ >57, 16%
> Cc1cc(NS(=O)(=O)c2ccc(NC(=O)CCN3C(=O)c4ccccc4C3=O)cc2)no1
→ >57, -8%
> COc1cc2c(cc1OC)-c1cc(OCCN3CCOCC3)nc(=O)n1CC2
→ ., -8%
> CCN(CC)c1nc(N)c2c(N)nc3c(c2c1C#N)CC(c1ccccc1)O3 (stereo not given)
→ >57, -9%
> COc1ccc(N2C(N)=C(C#N)C(c3cccnc3)C3=C2CC(C)(C)CC3=O)cc1 (stereo not given)
→ >57, 5%
> O=C(CSc1nnc(-c2ccco2)n1-c1ccccc1)NCCc1ccccc1
→ ., -2%
> O=S(=O)(O)c1nc2ccccc2n1CCOc1ccccc1
→ >57, -3%
> CCCn1c(=N)n(CCOc2ccc(OC)cc2)c2ccccc21
→ >57, -9%
> CCn1c(SCCC#N)nnc1-c1ccncc1
→ >57, ?
> COc1cccc(OCCCCN2CCCCC2)c1
→ >57, -9%
> c1cc2cc(c1)C[n+]1ccc(c3ccccc31)NCc1ccc(cc1)CNc1cc[n+](c3ccccc13)C2
→ >57, ?
> O=C(Nc1cccc(F)c1)c1cc(S(=O)(=O)N2CCC(C(=O)O)CC2)ccc1F
→ >57, 1%
> COc1ccc(-c2nc(CS(=O)CC(=O)NCC3CCCO3)c(C)o2)cc1 (stereo not given)
→ >57, 9%
> Cc1ccc(Cn2c(CN3CCOCC3)nc3c2c(=O)[nH]c(=O)n3C)cc1
→ >57, 7%
> c1ccc(-c2nnc(-c3cccc(-c4nnc(-c5ccccc5)o4)c3)o2)cc1
→ >57, 8%
> Cn1c(=O)c2sccc2n2c(CCCC(=O)NCc3ccc4c(c3)OCO4)nnc12
→ >57, 17%
> COc1ccc(Br)cc1CNC(=O)C1CCCN(c2nc3ccccc3o2)C1 (stereo not given)
→ >57, -9%
> COC(=O)/C=C/C1c2ccccc2C(OC)C1C (stereo not given)
→ ., -14%[8 µM]
> C(=N/Nc1nnc2c(n1)[nH]c1ccccc12)/c1cccnc1
→ >57, -2%[8 µM]
> CCCOc1cc(CC(=O)NCc2ccco2)ccc1OC
→ >57, -1%
> COc1ccccc1N(CCC#N)C(=O)CSc1nc(-c2ccccc2)cn1N
→ >57, ?
> CCOc1ccc2oc(C(=O)OCC(=O)NC(=O)NC3CCCC3)c(C)c2c1
→ >57, 3%
> O=C(O)COc1ccccc1O
→ ., -2%
> COC(=O)c1ccc(COC(=O)c2[nH]c(C)c(C(C)=O)c2C)o1
→ ., 18%
> COC(=O)C(c1ccccc1)C1CCCCN1 (stereo not given)
→ ., -3%
> COc1ccc(N/C(=N\c2nc(C)cc(C)n2)NC(C)=O)cc1OC
→ >57, 1%
> Cc1ccc(-n2c(N)c(C(=O)N3CCOCC3)sc2=S)cc1
→ >57, -5%
> N#Cc1ccc(CSc2nnc(-c3cccs3)n2-c2ccccc2)cc1
→ >57, -14%
> COc1ccc(C)cc1S(=O)(=O)NC1CCCCC1
→ ., -6%
> CCOC(=O)CSc1nc2ccccc2c(=O)n1CC1CCC(C(=O)NCc2ccco2)CC1 (stereo not given)
→ >57, 2%
> N#Cc1nc(-c2ccco2)oc1N1CCc2ccccc2C1
→ >57, 1%
> Nc1nc(SCC(=O)OCc2ccccc2)[nH]c(=O)c1NC(=O)c1ccco1
→ >57, ?
> CCOc1cc(C2C(C(=O)c3ccccc3)=C(C(=O)OC)Nc3nnnn32)ccc1O (stereo not given)
→ >57, -11%
> O=C(O)c1ccccc1C(=O)NCC(O)COCC1CC=CCC1 (stereo not given)
→ ., -4%
> Cc1cccc(C)c1[N+](=O)[O-]
→ ., -7%
> O=C1CCCc2nc3nc4ccccc4n3cc21
→ >57, .
> COc1cc2c(cc1O)-c1c(O)c(OC)cc3c1[C@H](C2)N(C)CC3
→ >57, -10%
> CC(C)c1cc(C(=O)O)on1
→ >57, 3%
> CCOc1ccc(NS(=O)(=O)c2ccc3c(c2)oc(=O)n3C)cc1
→ >57, -14%
> CCn1c(SCC(=O)NCC2CCCO2)nnc1-c1c[nH]c2ccccc12 (stereo not given)
→ >57, 9%

New compounds follow.
Results follow in this order: SmPrx2 inh, LT uptake inh
> CC(=O)NC1CC2CCCC(C1)N2S(=O)(=O)c1ccccc1 (stereo not given)
→ >57, 12%
> CC(C)CCOC(=O)C1[C@H]2C(=O)N(Cc3cccs3)C[C@]23C=C[C@H]1O3 (stereo not given in full)
→ >57, -8%
> O=c1oc2ccccc2cc1NCc1ccccc1O
→ >57, ?
> N=c1c(C(=O)NCc2ccc(F)cc2)cc2c(=O)n3ccccc3nc2n1CCCN1CCOCC1
→ >57, ?
> O=C(Nc1nccs1)c1ccc(CSc2nnnn2-c2ccccc2)cc1
→ >57, -2%
> Cc1ccc(N2CC(c3nc4ccccc4[nH]3)CC2=O)c(C)c1 (stereo not given)
→ >57, -4%
> CN1CCN(C2=Nc3cc(Cl)ccc3Nc3ccccc32)CC1
→ >57&>57&>57, ?
> Cc1cccc(-c2nc(CN3CCCC(C(=O)NC4CCCCC4)C3)c(C)o2)c1 (stereo not given)
→ >57, -4%
> CSC1=N/C(=C\c2ccc(C)o2)C(=O)S1
→ >57, ?
> CCOC(=O)c1cc(C(C)=O)c(=O)n(C)c1N
→ >57, 3%
> COc1ccc(NC(=O)c2cnc(C)cn2)c2ncccc12
→ >57, -3%
> O=c1nc2n(c3ccccc13)Cc1ccccc1-2
→ >57, 3%
> c1ccc(SCc2nc(-c3ccccn3)no2)cc1
→ >57, -16%
> Cc1ccc(-c2sc(C)nc2CC(=O)O)cc1
→ >57, 9%
> Cc1ccc(CNC(=O)C2CCCN(S(=O)(=O)c3cnc[nH]3)C2)cc1 (stereo not given)
→ >57, 5%
> COC(=O)c1ccc(COC(=O)c2c(C)nn(Cc3ccccc3Cl)c2Cl)o1
→ >57, ?
> COC(=O)Cc1ccc(NC(=O)c2cccs2)cc1
→ >57, 9%
> CCOc1ccccc1Nc1ncnc2c1cnn2-c1ccccc1
→ >57, ?
> CC1=NC(C(F)(F)F)(C(F)(F)F)C(C#N)=C(C)N1
→ >57, 6%
> COc1ccc(CNc2ccnc(-c3ccccc3CN(C)C)n2)c(OC)c1
→ >57, -3%
> O=C(NCC1CCCO1)c1c(O)c2cccc3c2n(c1=O)CCC3 (stereo not given)
→ >57, -19%
> CC1=C(C(=O)OC(C)(C)C)C(c2ccco2)C(C#N)=C(N)O1 (stereo not given)
→ >57, -8%
> O=C(NC1CCCCC1)N1CCCCCCC1
→ >57, -8%
> CC(OC(=O)CN(C)S(=O)(=O)c1ccc(Cl)cc1)C(=O)Nc1ccc(N2CCOCC2)cc1 (stereo not given)
→ >57, -5%
> CCOC(=O)Cn1c(=O)n(CC(=O)OCC)c2ccccc21
→ >57, -11%
> Cc1cc(C(=O)NCC2CCCO2)n(-c2ccccc2)n1 (stereo not given)
→ >57, -6%
> CC1CCc2c(C(=O)N3CCN(S(=O)(=O)c4cccs4)CC3)csc2C1 (stereo not given)
→ ?, ?
> C[C@@H](c1ccccc1)N1C(=O)[C@H]2[C@@H]3[C@H](O)[C@H](O)CC(=O)[C@H]3CC[C@H]2C1=O
→ ., ?
> CCCC(=O)NC(Nc1ccc(S(=O)(=O)Nc2cc(C)on2)cc1)(C(=O)OCC)C(F)(F)F (stereo not given)
→ >57, 12%
> COc1ccc(C(=O)Nc2nnc(Cc3cccs3)s2)cc1OC
→ >57, 11%
> CC1(C)[C@@H]2CC[C@]1(CC(=O)O)[C@H](Cl)C2
→ >57, -1%[8 µM]
> Cc1ccc(F)c(NC(=O)C2CCCCC2C(=O)O)c1 (stereo not given)
→ ., -4%
> O=c1[nH]nc(CSCc2ccccc2Cl)[nH]1
→ >57, -7%
> Cc1cc(C)nc(N2CCC(C(=O)Nc3ccc4c(c3)OCO4)CC2)n1
→ >57, -13%
> c1ccc(-c2nnc(CN3CCC4(CC3)OCCO4)o2)cc1
→ >57, 6%
> CC(=O)N1CCc2cc(S(=O)(=O)NCCC3=CCCCC3)ccc21
→ >57, 4%
> O=C(Cc1ccc(Br)cc1)N1CCCCCC1
→ >57, -6%
> CNP1(NC)=NC(C(F)(F)F)=NC(C(F)(F)F)=N1
→ >57, -5%
> Cc1cc(C(=O)CN2C(=O)NC3(CCCc4ccccc43)C2=O)c(C)n1Cc1cccs1 (stereo not given)
→ >57, ?
> O=S(=O)(Cc1nc2ccccc2s1)c1ccccc1
→ >57, -4%

Profiles, looked up by structure. Screens in order: SmPrx2 inh | LT uptake inh
`O=C(NCC1CCCO1)c1c(O)c2cccc3c2n(c1=O)CCC3` (stereo not given) across the screens: >57 | -19%
`CC1CCc2c(C(=O)N3CCN(S(=O)(=O)c4cccs4)CC3)csc2C1` (stereo not given) across the screens: ? | ?
`CC(=O)N1CCc2cc(S(=O)(=O)NCCC3=CCCCC3)ccc21` across the screens: >57 | 4%
`CCOC(=O)Cn1c(=O)n(CC(=O)OCC)c2ccccc21` across the screens: >57 | -11%
`Cc1cc(C(=O)NCC2CCCO2)n(-c2ccccc2)n1` (stereo not given) across the screens: >57 | -6%

(further entries)
Results follow in this order: SmPrx2 inh, LT uptake inh
> CCOc1ccc2nc(NCCCNS(=O)(=O)c3ccccc3)c(C#N)cc2c1
→ >57, ?
> Cc1cc(=S)cc(C)n1CCCO
→ >57, 6%
> CC[C@]1(c2cccc(O)c2)CCCCN(C)C1
→ >57, 0%[3.58 µM]
> CS(=O)(=O)Nc1cccc(-c2ccc3ncnc(NCCN4CCOCC4)c3c2)c1
→ >57, -9%
> CCC(CC)C(=O)Nc1ccccc1NC(C)=O
→ ., -10%
> COc1ccccc1NC(=O)CSc1ccc2nnc(-c3cccnc3)n2n1
→ >57, 4%
> COc1ccccc1CCn1c(=O)c(-c2cccc(Cl)c2)nc2cncnc21
→ >57, ?
> CCOC(=O)C1=C(C)NC(C)=C(C(=O)OC)[C@@H]1c1cccc([N+](=O)[O-])c1
→ >57, ?
> CCC(CC)C(=O)Nc1cccc(C(=O)N2CCCC2)c1
→ >57, -1%
> Cc1occc1C(=O)Nc1ccccc1C(=O)O
→ >57, -4%
> Cc1ccc2nsnc2c1S(=O)(=O)N(CCO)Cc1cc2cc3c(cc2[nH]c1=O)OCCO3
→ >57, 2%
> COc1cc(C(=O)N(Cc2ccc(N(C)C)cc2)C2CCS(=O)(=O)C2)cc(OC)c1OC (stereo not given)
→ >57, .
> CCOc1ccc(/C(O)=C2/C(=O)C(=O)N(CC3CCCO3)C2c2ccc(C)o2)cc1 (stereo not given)
→ >57, -3%
> CCCCn1c(=O)n(CC(=O)NCc2ccc(C)cc2)c(=O)c2c1nc(CO)n2CCC
→ >57, -13%
> Cn1c2ccccc2c2c(C(=O)N3CCC4(CC3)OCCO4)cn(C3CCCC3)c(=O)c21
→ >57, ?
> O=C(NC1CCCCC1)c1ccc(CS(=O)(=O)Cc2ccccc2F)o1
→ >57, -6%
> CC(=O)/C(CN1CCCCC1)=N\O
→ >57, -17%
> CC(=O)NCCc1cc2ccc(C)cc2[nH]c1=O
→ >57, 7%
> CCCN1CCN(C(=O)CCCn2c(C)c3cnn(-c4ccccc4)c(=O)c3c2C)CC1
→ >57, -10%
> CC(=O)CSCc1ccccn1
→ >57, -10%[8 µM]
> Cc1ccccc1C(=O)NC1CCN(Cc2nnnn2Cc2ccccc2)CC1
→ >57, 2%
> O=C(NCC(c1cccnc1)N1CCN(c2ccc(F)cc2)CC1)C1CCCCC1 (stereo not given)
→ >57, -3%
> O=C(Cn1c(=O)c2c(ncn2Cc2ccccc2)n(Cc2ccccc2)c1=O)N1CCCC1
→ >57, ?
> COc1ncc2nc(-c3ccc(F)cc3)c(=O)n(CCC#N)c2n1
→ >57, -5%

Compound activity from PubChem BioAssay.
